Screens as filed in PubChem.
E coli growth: E. coli growth inhibition | Escherichia coli growth, OD600, 23 h; active compounds read low | OD600 absorbance (test concentration not listed) | 330,000 tested, 0.21% active | AID 1053175;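 active means OD600 absorbance below the run mean of sample wells minus 3.6 SD, in any replicate, cut at about 0.56 in these data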;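 further: stock transfer was 300 nL into about 60 µL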
* marks the source's active call; other numbers are inactive results; & = joins results of further samples. These rows are one share of the data; rates above refer to the full screens.

C[C@]12C=CC(=O)C=C1CCC1C2C(O)C[C@@]2(C)C1CC[C@]2(O)C(=O)COC(=O)CCC(=O)O (stereo partly specified)
  E coli growth = 0.723
CC1CCC(=O)N(C(CSc2ccccc2)Cc2ccccc2)CC1 (stereo unspecified)
  E coli growth = 0.694
CCOC(=O)C1C2COc3ccc(Br)cc3C2N2C(=O)c3ccc(F)cc3NC(=O)[C@@]12C (stereo partly specified)
  E coli growth = 0.698
COc1ccc(NC(=O)Nc2cccc3c2OC(CN(C)CC2CCCCC2)C(C)CN(C(C)CO)C3=O)cc1 (stereo unspecified)
  E coli growth = 0.667
CC1CCN(C(=O)c2[nH]cnc2C(=O)NC(C)c2ccccc2)CC1 (stereo unspecified)
  E coli growth = 0.679
Cc1nnc(SCc2ccc(F)cc2)n1NCC=Cc1ccccc1
  E coli growth = 0.678
CN(C)S(=O)(=O)n1cnc(C2C3C(=O)OCC3C[C@@]23N=CN(Cc2ccccc2)C3=O)c1 (stereo partly specified)
  E coli growth = 0.673
C#CCOCCOCCOCCNc1nc(N2CCN(C(=O)CCCCCCCCCCNC(=O)C(C(C)O)n3cc(C)nn3)CC2)nc(N2CCN(C(=O)CCCCCCCCCCNC(=O)C(C(C)O)n3cc(C)nn3)CC2)n1 (stereo unspecified)
  E coli growth = 0.751
Cc1ccc(S(=O)(=O)N2C(c3cccc(C)c3)CC=C(C(=O)O)C2c2ccccc2)cc1 (stereo unspecified)
  E coli growth = 0.695
CSCCC(NC(=O)NCc1cccs1)C(=O)O (stereo unspecified)
  E coli growth = 0.692

COC(=O)[C@]1(CC(C)C)NC(c2ccc(SC3CCCCC3)cc2)C2C(=O)N(C)C(=O)C21 (stereo partly specified)
  E coli growth = 0.705
O=C1CCC=CCC(CC(=O)N(CCO)Cc2ccccc2)C(=O)NC(Cc2c[nH]c3ccccc23)CO1 (stereo unspecified)
  E coli growth = 0.633
O=C1NC(=Cc2cccn2-c2ccccc2)C(=O)N1Cc1ccccc1F
  E coli growth = 0.707
COc1ccc(S(=O)(=O)N(C)CC2Oc3c(NC(=O)c4ccncc4)cccc3C(=O)N(C(C)CO)CC2C)cc1 (stereo unspecified)
  E coli growth = 0.703
Cc1cc(C=C2C(=O)N(C)C(=S)N2C)ccc1N1CCCC1
  E coli growth = 0.706
CC=C(C)C(=O)OC1c2c(ccc3ccc(=O)oc23)OC1C(C)(C)OC(=O)C(C)=CC (stereo unspecified)
  E coli growth = 0.691
C#CCOCCOCCOCCNc1nc(N2CCN(C(=O)C(Cc3ccc(O)cc3)n3cc(C(N)CC(C)C)nn3)CC2)nc(N2CCN(C(=O)C(C(C)CC)n3cc(C(N)CC(C)C)nn3)CC2)n1 (stereo unspecified)
  E coli growth = 0.65
COc1ccc(NC(=O)Nc2ccc3c(c2)CC(=O)N(C(C)CO)CC(C)C(CN(C)C(=O)Nc2ccccc2)O3)cc1 (stereo unspecified)
  E coli growth = 0.691
O=C1C2C(c3ccc(Cl)cc3)N3C(=O)N(c4cccc(Cl)c4)C(=O)[C@@]3(Cc3ccccc3)C2C(=O)N1C1CCCCC1 (stereo partly specified)
  E coli growth = 0.702
CC(C)CC(NC(=O)c1nc[nH]c1C(=O)NCc1ccc(CNC(=O)OC(C)(C)C)cc1)C(=O)OCc1ccccc1 (stereo unspecified)
  E coli growth = 0.689

CC(CN1C2=NCC(Cc3ccc(O)cc3)N2CC1Cc1ccc(O)cc1)NC(=O)CCC1CCCCC1 (stereo unspecified)
  E coli growth = 0.645
C=CCC(CC(=O)N(CCO)Cc1ccccc1)C(=O)NC(COC(=O)C(CC=C)Cc1ccc(F)cc1)Cc1c[nH]c2ccccc12 (stereo unspecified)
  E coli growth = 0.629&0.687&0.764
CCc1ccc(C=C2SC(=S)N(CCC(=O)NC3=NCCS3)C2=O)cc1
  E coli growth = 0.745
Cc1cc(C)cc(C(=O)C=C2NC(=O)CS2)c1
  E coli growth = 0.682
COC(C)(C)C(O)COc1c2ccoc2cc2oc(=O)ccc12 (stereo unspecified)
  E coli growth = 0.707
O=C1CCN(Cc2ccc([N+](=O)[O-])cc2)CCN1C(CO)c1ccccc1 (stereo unspecified)
  E coli growth = 0.704
COc1ccc(C2C=CCNCC(=O)N2Cc2ccc(F)cc2)cc1 (stereo unspecified)
  E coli growth = 0.705
C[C@@]12C(=O)Nc3ccc(Cl)cc3C(=O)N1C1c3ccccc3OCC1C2c1ccccc1 (stereo partly specified)
  E coli growth = 0.685
COc1cc(CCCN2CCNCC2c2ccccc2)cc(OC)c1OC (stereo unspecified)
  E coli growth = 0.685
C#CCOCCOCCOCCNc1nc(N2CCN(C(=O)C(Cc3ccc(O)cc3)n3cc(CCO)nn3)CC2)nc(N2CCN(C(=O)C(C(C)O)n3cc(CCCCN)nn3)CC2)n1 (stereo unspecified)
  E coli growth = 0.703

CNCC(O)c1cccc(O)c1 (stereo unspecified)
  E coli growth = 0.712
CS(=O)(=O)N1c2ccccc2[C@]2([C@@]34CC5C(=O)NC(Cc6ccccc6)C(=O)N5C3N(S(C)(=O)=O)c3ccccc34)CC3C(=O)NC(Cc4ccccc4)C(=O)N3C12 (stereo partly specified)
  E coli growth = 0.673
CC(OC(=O)NCc1ccc(C(F)(F)F)cc1)C1O[C@@]2(C)CCCC1O2 (stereo partly specified)
  E coli growth = 0.699
CC=C(C)C(=O)OC(C(O)c1cc2ccc(=O)oc2cc1OC)C(C)(C)OC1OC(CO)C(O)C(O)C1O (stereo unspecified)
  E coli growth = 0.687
CC(=O)OC1CC[C@@]2(C)C(=CCC3C4CCC(C(C)=O)[C@@]4(C)CCC32)C1 (stereo partly specified)
  E coli growth = 0.722
CCCCN1CCC2C=CCC(C(=O)N3CCOCC3)C2C1=O (stereo unspecified)
  E coli growth = 0.638
COc1ccc(NC(=O)C2CC=CC3CCN(Cc4ccc(Cl)c(Cl)c4)C(=O)C32)cc1 (stereo unspecified)
  E coli growth = 0.663
COC(=O)C1CN(C(=O)c2ccccc2)C(=O)N1 (stereo unspecified)
  E coli growth = 0.697
CC(C)(C)OC(=O)CC1CC=CCC(CC(=O)N(CCO)Cc2ccccc2)C(=O)NC(C(C)(C)C)COC1=O (stereo unspecified)
  E coli growth = 0.646&0.685&0.702&0.656
COC(=O)[C@@]1(Cc2ccc(F)cc2)C2c3cc(C(=O)N(C)C)n(Cc4ccccn4)c3CC2CN1C(=O)c1ccccc1 (stereo partly specified)
  E coli growth = 0.722

Cc1cc(=O)[nH]c(NN=CC=Cc2ccccc2)n1
  E coli growth = 0.641
Cc1ccc(S(=O)(=O)N2CC(C(=O)O)=CCC2c2ccc3c(c2)OCO3)cc1 (stereo unspecified)
  E coli growth = 0.688
CCN1C(=O)NC(CCc2ccccc2)C(C(=O)OC)=C1C (stereo unspecified)
  E coli growth = 0.677
C#CCOCCOCCOCCNc1nc(N2CCN(C(=O)CCCCCCCCCCNC(=O)Cn3cc(CC(C)O)nn3)CC2)nc(N2CCN(C(=O)CCCCCCCCCCNC(=O)Cn3cc(CC(C)O)nn3)CC2)n1 (stereo unspecified)
  E coli growth = 0.753
CCN1C(=O)NC(c2ccccc2)C(C(=O)OC)C1C (stereo unspecified)
  E coli growth = 0.633&0.716
CC(C(=O)NCc1ccccc1)C1C[C@@]1(C)C(NC(=O)OCc1ccccc1)c1ccccc1 (stereo partly specified)
  E coli growth = 0.666
O=C(NCc1ccccc1)C1(C(F)(F)F)CC(=CCCO)CCCO1 (stereo unspecified)
  E coli growth = 0.684&0.665
O=C(C=Cc1ccc([N+](=O)[O-])cc1)NCC1CCCO1 (stereo unspecified)
  E coli growth = 0.666
CC(=O)N1C(Cc2ccccc2)C=C[C@]1(C)C(=O)NCc1ccccn1 (stereo partly specified)
  E coli growth = 0.67
CC(C)C(CO)NC(=O)c1ccc2c3n(nc2c1)-c1ccc(Cl)cc1CO3 (stereo unspecified)
  E coli growth = 0.625

COc1ccc(C2CC(=O)C=C(c3ccc4c(c3)sc3ccccc34)C2)cc1 (stereo unspecified)
  E coli growth = 0.662
S=C1NCC(c2ccccc2)N1CC1CCCCC1 (stereo unspecified)
  E coli growth = 0.697
C=CCC(CC(=O)N(CCO)Cc1ccccc1)C(=O)NC(C)COC(=O)C(CC=C)Cc1ccc(F)cc1 (stereo unspecified)
  E coli growth = 0.66&0.69&0.694&0.7
CCCCc1cn(C(CCCCN)C(=O)N2CCNCC2)nn1 (stereo unspecified)
  E coli growth = 0.712
NC(=O)C1CC2(CC(c3cccc(NC(=O)COc4ccc(Cl)cc4)c3)=NO2)CN1C(=O)C1CCC(=O)N1 (stereo unspecified)
  E coli growth = 0.704
COc1ccc(-c2ccc(OC)c(C3C4C=CCC(C)C4C(=O)N3Cc3ccccc3)c2)cc1 (stereo unspecified)
  E coli growth = 0.736
C#CCOCCOCCOCCNc1nc(N2CCN(C(=O)CCCCCCCCCCNC(=O)C(CO)n3cc(CCCSC)nn3)CC2)nc(N2CCN(C(=O)CCCCCCCCCCNC(=O)C(CO)n3cc(CCCSC)nn3)CC2)n1 (stereo unspecified)
  E coli growth = 0.744
C#Cc1ccc(C2C=C(C(=O)N3CCN(Cc4ccc5c(c4)OCO5)CC3)OC(OCC)C2CCCO)cc1 (stereo unspecified)
  E coli growth = 0.699&0.676
NCCCCC(C(=O)N1CCNCC1)n1cc(C(N)CO)nn1 (stereo unspecified)
  E coli growth = 0.723
Cc1ccccc1Cn1cccc1C=C1C(=N)N2C=CSC2=NC1=O
  E coli growth = 0.785

C#CCOCCOCCOCCNc1nc(N2CCN(C(=O)C(CC(N)=O)n3cc(C(N)C(C)CC)nn3)CC2)nc(N2CCN(C(=O)C(CC(N)=O)n3cc(C(N)C(C)CC)nn3)CC2)n1 (stereo unspecified)
  E coli growth = 0.67
COC(=O)[C@@]1(Cc2ccc(F)cc2)C2c3cc(C(=O)N(C)C)n(Cc4ccccc4)c3CC2CN1C(=O)c1ccccc1 (stereo partly specified)
  E coli growth = 0.686
C#CCOCCOCCOCCNc1nc(N2CCOCC2)nc(N2CCN(C(=O)C(CCCCN)n3cc(C(N)CO)nn3)CC2)n1 (stereo unspecified)
  E coli growth = 0.711
CC(C)(C)OC(=O)C(CCCCN)NC(=O)c1nc[nH]c1C(=O)NC(CCCCN)C(=O)OC(C)(C)C (stereo unspecified)
  E coli growth = 0.712
CCCC=C1CCCOC(C(=O)NCCNCCO)(C(F)(F)F)C1 (stereo unspecified)
  E coli growth = 0.658
CC(O)Cc1cc2ccccc2c(=O)o1 (stereo unspecified)
  E coli growth = 0.694
C#CCNC(=O)C1=CC(C2CC2)CC(OCCCCO)O1 (stereo unspecified)
  E coli growth = 0.713&0.69
COC(=O)C(C)NC(=O)C=Cc1ccc(OC)cc1 (stereo unspecified)
  E coli growth = 0.725
COc1ccc(CC2CN3C(=NCC3Cc3ccc(O)cc3)N2CC(C)NC(=O)CCC2CCCCC2)cc1 (stereo unspecified)
  E coli growth = 0.614&0.671
C=CCC(CC(=O)NC(CO)Cc1ccccc1)C(=O)NCCOC(=O)C(CC=C)Cc1ccc(F)cc1 (stereo unspecified)
  E coli growth = 0.712

C=CCN1C(=O)C(=CC=C2N(C)c3ccccc3C2(C)C)SC1=S
  E coli growth = 0.747
CCNC1CN(CCCOC)S(=O)(=O)c2sc(S(N)(=O)=O)cc21 (stereo unspecified)
  E coli growth = 0.663
Cc1ccc(C2C3C(=O)N(c4ccccc4)C(=O)C3[C@]3(Cc4ccccc4)C(=O)N(CC4CC4)CC(=O)N23)o1 (stereo partly specified)
  E coli growth = 0.688
COc1ccc(NC(=O)N(C)CC2Oc3ccc(NS(=O)(=O)c4cccs4)cc3C(=O)N(C(C)CO)CC2C)cc1 (stereo unspecified)
  E coli growth = 0.679&0.703
COc1cc(C=CCO)cc(OC)c1OC1OC(CO)C(O)C(O)C1O (stereo unspecified)
  E coli growth = 0.656
COc1ccc(C2C3C(=O)N(C(C)(C)C)C(=O)C3[C@]3(C)C(=O)N(c4cccc(Br)c4)C(=O)N23)cc1 (stereo partly specified)
  E coli growth = 0.701
CCOC(=O)C1C2COc3cc(OC)ccc3C2N2C(=O)N(c3cccc(Cl)c3)C(=O)[C@@]12C (stereo partly specified)
  E coli growth = 0.731&0.716
CCCCC1CNC(=S)N1CCCc1cc(OC)c(OC)c(OC)c1 (stereo unspecified)
  E coli growth = 0.615
O=C(O)C1=CC(c2ccc(Br)cc2)CC(OCCCCO)O1 (stereo unspecified)
  E coli growth = 0.671&0.699
CC(=CCC1=C(C)C(=O)c2ccccc2C1=O)CCCC(C)CCCC(C)CCCC(C)C (stereo unspecified)
  E coli growth = 0.658

O=C1C=C(c2cccc3c2sc2ccccc23)CC(c2ccc(F)cc2)C1 (stereo unspecified)
  E coli growth = 0.695
NCCCCC(NC(=O)C1CCNCC1)c1nnc(C(N)CO)o1 (stereo unspecified)
  E coli growth = 0.72
COc1cc2c(cc1OC)C(=O)N1C3c4cc(Cl)ccc4OCC3C(c3ccccc3)[C@]1(C)C(=O)N2 (stereo partly specified)
  E coli growth = 0.724
CC(C)CC(CC#N)N1CCN(CCc2ccccc2)CCC1=O (stereo unspecified)
  E coli growth = 0.69
COc1cc(CCCN2C(=O)C(=O)NCC2Cc2ccc(O)cc2)cc(OC)c1OC (stereo unspecified)
  E coli growth = 0.697
CC1CN(C(C)CO)C(=O)c2cccc(NS(=O)(=O)c3cn(C)cn3)c2OC1CN(C)Cc1ccc(-c2ccccc2)cc1 (stereo unspecified)
  E coli growth = 0.715
C[C@@]12C(=O)N(CCO)CC(=O)N1C(C=Cc1ccccc1)C1C(=O)N(c3ccccc3)C(=O)C12 (stereo partly specified)
  E coli growth = 0.716
CC(CO)NC(=O)c1ccc2c3n(nc2c1)-c1ccccc1CO3 (stereo unspecified)
  E coli growth = 0.675
COc1cc(C2OCC3C(c4ccc5c(c4)OCO5)OCC23)ccc1O (stereo unspecified)
  E coli growth = 0.668
O=C(CNC(=O)C(=Cc1ccccc1)NC(=O)c1ccc(Br)cc1)OCc1ccccc1
  E coli growth = 0.677
O=c1oc(C(O)c2ccccc2)cc2ccccc12 (stereo unspecified)
  E coli growth = 0.641

4 entries from above in a different format.
SMILES | E coli growth
CC(CO)NC(=O)c1ccc2c3n(nc2c1)-c1ccccc1CO3 (stereo unspecified) | 0.675
COc1cc(C2OCC3C(c4ccc5c(c4)OCO5)OCC23)ccc1O (stereo unspecified) | 0.668
O=C(CNC(=O)C(=Cc1ccccc1)NC(=O)c1ccc(Br)cc1)OCc1ccccc1 | 0.677
O=c1oc(C(O)c2ccccc2)cc2ccccc12 (stereo unspecified) | 0.641
